# Beta cell apopt = inhibitors of cytokine-induced beta cell apoptosis, primary screen, luminescence. 300,000 tested, 0.8% active. INS-1E cytokine-induced death, ATP luminescence, 48 h; percent of positive-control rescue, neutral wells zero. protection from apoptosis, % (no concentration beside the values);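 active = all replicates at 75% or more, or half of them and the mean; inconclusive = half reach 75% but not the mean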;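 note: 0% = cytokine-treated negative control wells and 100% = positive control rescue; higher means more ATP so stronger rescue from cytokine killing; wells of about 40 µL received 100 nL stock; the first replicate is given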
# RanGTP-Impb inh = inhibitors of RanGTP-importin-beta interaction, primary screen, biochemical, FRET, CFP-Ran, YFP-importin-beta, homogeneous; Ran GTPase (GTP-bound) - importin-beta complex; cell-free CFP-Ran/YFP-importin-beta FRET ratio; inhibition, % (concentration not given with the values); 300,000 tested, 1.1% active; AID 2216, 2009;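 active = most replicates above 15%; inconclusive = exactly half above 15%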;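 note: 0% = DMSO wells and 100% = Ran loaded with GDP instead of GTP; wells of about 40 µL received 100 nL stock; the first replicate is given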
# Vif A3G = inhibitors of Vif binding to APOBEC3G peptide, primary screen, biochemical, TR-FRET, GST-Vif 1-94, biotin-A3G peptide, dose response retest (AID 1117319) | Virion infectivity factor (Human immunodeficiency virus type 1 group M subtype B (isolate … | TR-FRET GST-Vif / biotin-A3G peptide binding; higher % means a stronger effect; test concentration not given here; strong numbers were not always called active | inhibition, %; hits with a dose series show IC50 in µM | 260,000 tested, 0.57% active;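 active = above the screen mean plus three standard deviations and confirmed in dose response; inconclusive = results disagree or hit not tested in dose response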;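 note: Vif residues 1-94 fused to GST binding biotinylated APOBEC3G peptide 110-148; 0% = full assay without inhibitor and 100% = GST in place of GST-Vif; retest series ran down from 100 µM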
# AF4-AF9 inh = inhibitors of AF4 peptide binding to AF9, primary screen, biochemical, AlphaScreen, biotin-AF4 peptide, FLAG-AF9, single point; Protein AF-9 (Homo sapiens), P42568; inhibition, % at 10 µM; 350,000 tested, 0.47% active;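 active = every replicate reaching a set inhibition limit, whatever the replicate mean, cut at about 25% in these data; inconclusive = mean inhibition reaches that limit but some replicates miss it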;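 note: 0% = plate neutral control median and 100% = total signal loss; the record names both 10 and 1 µM as test concentration; the first replicate is given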
# Target sequence (P42568 whole entry, looked up): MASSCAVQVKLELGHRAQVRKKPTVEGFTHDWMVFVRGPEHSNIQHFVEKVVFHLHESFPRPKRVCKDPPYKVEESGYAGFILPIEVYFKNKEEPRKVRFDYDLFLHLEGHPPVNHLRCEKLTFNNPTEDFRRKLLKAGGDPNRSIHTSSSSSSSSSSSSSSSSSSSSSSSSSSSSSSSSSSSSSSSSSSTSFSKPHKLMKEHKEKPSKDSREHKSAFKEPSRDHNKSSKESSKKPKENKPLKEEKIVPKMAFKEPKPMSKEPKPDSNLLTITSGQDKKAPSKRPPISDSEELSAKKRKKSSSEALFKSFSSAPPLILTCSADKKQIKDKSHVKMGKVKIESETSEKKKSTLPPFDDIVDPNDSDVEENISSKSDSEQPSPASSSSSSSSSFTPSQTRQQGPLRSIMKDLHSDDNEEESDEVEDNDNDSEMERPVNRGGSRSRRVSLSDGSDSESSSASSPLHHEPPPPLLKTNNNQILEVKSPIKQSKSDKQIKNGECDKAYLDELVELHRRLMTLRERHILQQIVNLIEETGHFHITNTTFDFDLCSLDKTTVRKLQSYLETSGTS
# T cruzi repl = inhibitors of intracellular T. cruzi growth, primary screen, luminescence, NIH3T3 host cells | T. cruzi beta-gal in NIH3T3, 90 h | inhibition, % (test concentration not listed) | 300,000 tested, 1.4% active | AID 1885, 2009;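 active = mean inhibition across valid replicates above about 55%, limit read from the data; inconclusive = mean below that limit but half or more replicates reach it; inactive = mean below it, under half of replicates reach it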;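 note: signal also drops with host cell toxicity which is not excluded here; 0% = plate median of DMSO wells and 100% = zero luminescence signal; higher percent means less beta-gal luminescence so fewer parasites; stock transfer was 50 nL into about 50 µL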
# Ecoli rRNA inh = reduced GFP signal of wild-type E. coli, primary screen, bacterial rRNA inhibitor project, GFP/RFP fluorescence, OD600, single point; AID 720706, 2013; E. coli WT GFP vs humanized-ribosome RFP mutants, 24 h; stronger effect = lower value; DMSO median 0, no signal -100; 350,000 tested, 1.6% active; GFP signal change (wild-type ribosome), % (concentration not given with the values);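 active = significant combined selectivity score with lowered wild-type GFP, culture density cut under 30%, mutant RFP and density less affected; inactive = any of these conditions unmet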; note: one replicate is shown; some compounds called inactive have numbers as strong as hits
# A1 inh = caspase 3/7 activation in MEF A1-2A-BIM cells, primary screen, A1 inhibitor project, cell-based, luminescence, HTS | Caspase-Glo 3/7 luminescence, 3 h; percent of clofoctol response, vehicle zero | caspase activation, % (concentration not given with the values) | 330,000 tested, 0.066% active | AID 2462, 2010;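 active = over half of replicate activation scores above 10%, or exactly half above 10 with the replicate mean above 10; inconclusive = replicate mean below 10 yet half the replicates above 10; inactive = over half of replicates below 10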;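 note: wells of about 30 µL received 50 nL stock; many hits fall short of the cut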
# Calb FLC = C. albicans growth inhibition with fluconazole, primary screen, CaCi-2 strain, Alamar Blue fluorescence. C. albicans CaCi-2 (fluconazole-resistant clinical isolate) + fluconazole, 48 h. 300,000 tested, 0.57% active. AID 1979, 2009. growth inhibition, % (concentration not given with the values);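 active = most replicates above 75%; inconclusive = exactly half above 75%; inactive = most below 75%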;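 note: all wells also contain fluconazole at 8 µg/ml as a sub-toxic cotreatment; 0% = median of DMSO wells and 100% = median of geldanamycin control wells; wells of about 8 µL received 7.5 nL stock; the first replicate is given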
# Ecoli rRNA inh OD600 = second read-out of Ecoli rRNA inh, no call of its own (marks repeat the call); OD600 change, %; measured here: OD600 growth;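 optical density of the mix in the first replicate; 0 = DMSO median and -100 = no signal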
# Ecoli rRNA inh RFP = also measured in Ecoli rRNA inh; calls as there; RFP signal change, %; measured here: RFP humanized mutant strains;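 first replicate; 0 = DMSO median and -100 = no signal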
# * hit, by the source's call; ? = inconclusive; / = not tested or not shown. An excerpt; rates above refer to the full screens.
SMILES	Beta cell apopt	RanGTP-Impb inh	Vif A3G	AF4-AF9 inh	T cruzi repl	Ecoli rRNA inh	Ecoli rRNA inh OD600	Ecoli rRNA inh RFP	A1 inh	Calb FLC
O=C(c1sc(N2CCOCC2)nc1-c1ccccc1)N1CCCCC1	/	2.1	/	1.0	3	-1	1	-2.5	0.1	0
CCC(C)C(=O)N1c2ccccc2C(=C2SC(C(=O)OC)=C(C(=O)OC)S2)C(=S)C1(C)C (stereo unspecified)	63	-6.6	29%	/	2	5	9	0.2	-0.8	-4
CCOC(=O)Cc1csc(SCC(=O)/C(C#N)=C(\C)N)n1	-8	-1.1	1%	/	3	/	/	/	-0.1	-2
CCOC(=O)c1ccccc1NC(=O)/C=C/c1cc(OC)c(OC)c(OC)c1	/	5.0	-2%	/	12	/	/	/	1.3	-2
CN(C(=O)c1ccncc1)C1CCCCC1	1	1.7	/	-1.3	2	11	12	2.7	-0.3	2
O=C1c2ccccc2C(=O)N1c1ccc(Br)c2cccnc12	-4	6.0	-2%	-1.0	3	-9	-26	-2.7	0.3	11
S=C(NCCc1ccccc1)Nc1ccc(Nc2ccccc2)cc1	92*	-4.4	25%	15	2	-31	-55	8.7	-0.2	31
Cc1ccc(OC(=O)CCC(=O)Nc2ccc(C(N)=O)cc2)cc1	-6	0.6	/	-2.3	-5	23	5	4.7	0.7	0
COc1ccc(CNC(=O)CCCn2ncn3c(cc4occc43)c2=O)cc1	-1	4.6	12%	0.5	-8	5	12	2.9	-0.2	0
CCOc1ncccc1C(=O)Nc1cc(C(F)(F)F)ccc1N1CCOCC1	-2	/	/	0.7	/	4	2	0.0	-0.9	/
COc1cccc2sc(N(CCN(C)C)C(=O)/C=C/c3cccs3)nc12	3	0.7	32%	-0.8	-4	4	8	33	1.8	-6
O=C(N/C(=C/c1cccc([N+](=O)[O-])c1)C(=O)N1CCOCC1)c1ccccc1Br	7	-1.3	/	0.5	7	/	/	/	0.2	45
COc1ccc(/C=N/NC(=O)c2ccccc2O)cc1Cn1cc([N+](=O)[O-])cn1	-1	4.8	23%	-2.7	6	4	2	-4.3	0.6	-2
CCCN(CCC)C(=O)c1ccc2c(c1)OCO2	/	-2.1	15%	/	-10	/	/	/	-0.6	-14
CC(C)(C)c1ccc(S(=O)(=O)NCC(=O)N2CCN(Cc3ccccc3)CC2)cc1	4	-4.5	/	1.9	18	22	10	8.8	0.7	-4
CCOC(=O)C1CCCN(Cc2nc(N)nc(Nc3ccccc3OC)n2)C1 (stereo unspecified)	0	3.6	-3%	-3.5	-13	5	4	1.9	0.6	-9
CN1CCN(C(=O)c2ccc3c(c2)S(=O)(=O)c2ccccc2C3=O)CC1	-4	-0.2	/	-1.7	-9	1	13	-6.2	0.9	4
COc1ccc(N(CC(=O)NCc2ccc(Cl)cc2)S(=O)(=O)c2c(C)n[nH]c2C)cc1	5	-2.2	/	1.8	6	-19	-12	-2.5	-0.9	2
Clc1ccc(OCc2nc(-c3ccncc3)no2)cc1	0	-0.8	-2%	/	19	/	/	/	0.1	-8
O=[N+]([O-])c1ccccc1S(=O)(=O)Nc1ccc(-c2ccc(N3CCOCC3)nn2)cc1	1	-1.3	4%	0.4	-2	2	-5	0.6	-0.9	7
COc1cccc(NC(=S)NC(=O)/C=C/c2ccco2)c1	-2	-0.6	28%	3.6	-2	-2	-2	-1.9	-0.5	-4
O=C(c1cc(Br)c(Br)s1)N1CCN(C/C=C/c2ccccc2)CC1	-4	3.2	-4%	/	-2	/	/	/	0.4	-5
O=C(Nc1ccccc1)N1CCc2c([nH]c3ccccc23)C1C(F)(F)F (stereo unspecified)	-6	-3.0	-6%	/	14	/	/	/	-0.9	2
CCS(=O)(=O)c1nc(S(=O)(=O)c2ccc(Cl)cc2)c(N2CCC(C(N)=O)CC2)s1	-2	1.7	2%	4.2	-38	-2	-6	0.9	0.1	1
CCOC(=O)CC1C(=O)NCCN1C(=O)Nc1ccc(Cl)cc1 (stereo unspecified)	-2	-0.8	-2%	/	-10	/	/	/	-1.2	14
COc1cc2c(C)nc3c(c(C)nn3-c3ccccc3)c2cc1OC	-7	?	-5%	-4.9	?	18	14	-2.8	-0.2	2
O=C(C1=C(O)C(=O)N(CCCN2CCOCC2)C1c1ccccn1)c1cc2ccccc2o1 (stereo unspecified)	1	2.0	8%	/	-3	/	/	/	1.1	-2
O=C(CN1CCCC1)Nc1ccc2c(c1)CCC2	-5	4.0	-3%	0.3	-11	3	6	0.1	-0.5	-1
O=C(NNC(=O)c1cccc2ccccc12)c1ccco1	-8	-1.3	-6%	/	-5	/	/	/	0.9	-4
CCOc1cc(-c2noc(CCCC(N)=O)n2)cc(Br)c1OC	-4	-0.3	-4%	/	-16	/	/	/	0.3	4
N#Cc1cccc(Nc2c3c(nc4ccccc24)CCC3)c1	2	-0.3	-4%	0.3	12	6	-20	-1.9	-0.5	-5
Cc1ccccc1C(=O)NC1CCN(CC(=O)Nc2ccc3c(c2)OCO3)CC1	1	3.2	-2%	-1.5	-14	13	3	-4.3	0.5	-16
Cc1ccc(CNC(=O)COc2ccc(C)nc2[N+](=O)[O-])cc1	1	-0.4	/	-11	1	/	/	/	0.1	5
Cc1cccc(C)c1NC(=O)CC(NCCc1ccccc1)C(=O)O (stereo unspecified)	-3	2.6	-10%	/	-8	/	/	/	-0.1	-4
COc1cc(C2(c3ccc(O)c(OC)c3)C(=O)N(C)c3ccc(Br)cc32)ccc1O	-1	-0.2	/	0.3	12	-43	-43	-0.8	-0.1	-30
O=C(O)C1C2C=CC3(CN(Cc4ccccn4)C(=O)C13)O2 (stereo unspecified)	2	1.1	23%	/	3	/	/	/	0.2	?
COc1ccc(OCCC(=O)NCc2ccccc2)cc1	5	0.7	-4%	/	7	/	/	/	0.4	0
COCCCNC(=S)NNC(=O)c1ccc(C(C)(C)C)cc1	5	-5.0	-5%	1.6	-38	6	3	2.9	2.0	0
CSCCC(NC(N)=O)C(=O)NCc1cccc(Cl)c1 (stereo unspecified)	/	2.2	3%	/	-6	/	/	/	0.3	-3
CCN(CC)S(=O)(=O)c1ccc(Cl)c(C(=O)Nc2ccc(Cl)cc2[N+](=O)[O-])c1	100*	1.3	14%	9.8	-9	10	11	-2.2	0.4	14
CCn1c2ccccc2c2cc(CN3CCN(S(=O)(=O)CC)CC3)ccc21	-6	-0.9	/	3.9	21	-34	-54	-9.8	0.2	0
O=C1CC(c2ccccc2)CN1S(=O)(=O)c1ccccc1 (stereo unspecified)	1	8.3	12%	-3.1	-9	2	3	0.8	0.2	10
COCCNC(=O)c1c(N)n(CCCn2ccnc2)c2nc3ccccc3nc12	6	113*	1%	/	-9	/	/	/	-0.5	1
O=C(c1ccc(Cl)cc1)N(Cc1ccco1)C1CCS(=O)(=O)C1 (stereo unspecified)	1	-1.3	/	-4.1	-9	5	16	-3.3	0.7	-2
O=C(NC(=S)Nc1ccc2oc(=O)ccc2c1)c1ccccc1F	1	-0.6	-47%	/	1	11	20	4.7	0.0	-3
COc1ccc(CNC(=O)C(=O)NCc2ccncc2)cc1	-3	-3.6	1%	-1.2	12	-1	7	-2.2	-0.8	2
Cc1ccc(Cl)cc1NC(=S)N(Cc1cccnc1)Cc1ccccc1Cl	4	2.3	21%	-4.0	72*	-13	-7	-1.6	-0.2	28
COc1ccc(-c2nc(CS(=O)CC(=O)NCCc3ccc(OC)c(OC)c3)c(C)o2)cc1 (stereo unspecified)	-6	4.2	-4%	-6.3	1	-2	1	-2.4	-1.0	12
O=C(Cn1ncc2c(=O)oc3ccccc3c21)NCCC1=CCCCC1	-5	5.7	-1%	/	-17	/	/	/	1.5	-6
CCCn1cnc2c(N)c(C)c(C)cc21	-4	-2.0	2%	/	-10	/	/	/	1.3	-4
Cc1nc(C(=O)NC(C)C)nn1-c1cc(Cl)cc(Cl)c1	-1	-0.4	2%	-2.6	-18	-8	-15	0.7	0.0	25
Cc1ccc(NC(=O)Cn2nc(-c3ccco3)ccc2=O)cc1Cl	-1	-0.1	/	0.1	-22	-7	-18	0.7	-1.6	-14
O=C1CC(c2ccc(S(=O)(=O)N3CCN(c4ccccc4)CC3)cc2)CN1 (stereo unspecified)	-1	?	1%	/	-16	/	/	/	0.4	-6
Cc1ccc(C(=O)NCCNC(=O)c2ccc(C)o2)o1	-9	8.2	/	-1.4	-5	5	7	0.3	0.2	-7
COC(=O)C(NS(=O)(=O)c1ccc(N2CCCC2=O)cc1)c1ccccc1 (stereo unspecified)	/	-5.7	-6%	-2.5	8	0	3	-0.2	0.4	-18
CC(=O)Nc1cccc(Oc2nc(C(F)(F)F)nc3ccccc23)c1	5	-1.2	-3%	-3.0	-9	5	1	0.3	0.5	0

# The listing continues.
SMILES	Beta cell apopt	RanGTP-Impb inh	Vif A3G	AF4-AF9 inh	T cruzi repl	Ecoli rRNA inh	Ecoli rRNA inh OD600	Ecoli rRNA inh RFP	A1 inh	Calb FLC
Cc1ccc(N2CC(C(=O)NCc3nnnn3-c3ccc(C)c(C)c3)CC2=O)cc1 (stereo unspecified)	3	-0.4	/	-0.8	-30	-15	-11	2.8	-1.9	6
CC(C)COn1c(=S)[nH]c2ccccc2c1=O	1	0.2	-1%	/	-22	/	/	/	-0.2	37
Cc1cc(NC(=O)CSCC(=O)NCc2cccc(C(F)(F)F)c2)no1	-3	7.5	-3%	-1.1	-1	-1	-1	0.4	2.4	1
COc1ccc(NC(=O)C(c2ccc(C)cc2)N(C)C(=O)CNC(C)=O)cc1 (stereo unspecified)	2	2.2	-6%	/	-7	/	/	/	-0.1	-8
COc1ccc(-n2c(C)nn(CCOc3ccccc3)c2=O)cc1	-4	3.4	/	-0.3	-9	-5	0	-0.9	0.2	-4
COc1ccc(CCN(C)CCN2C(=O)c3ccccc3C2=O)cc1OC	-7	7.8	?	/	6	/	/	/	0.2	0
O=C(COC(=O)COc1ccccc1F)NC1CC1	-5	/	/	-1.8	/	-1	16	-0.6	-0.4	/
COCCNc1oc(-c2cccs2)nc1S(=O)(=O)c1ccc(C)cc1	-2	-0.6	0%	7.1	-2	3	7	-1.1	2.3	3
O=C(COC(=O)CSCC(=O)N1CCCCC1)Nc1ccc(Cl)cc1	-5	28*	1%	/	-22	/	/	/	-0.5	?
